Bioassay records: PubChem BioAssay, several laboratories
LANA-H2A inh: blocks KSHV LANA binding to histone H2A/H2B | Q9QR71 | cell-free LANA-H2A/H2B peptide, fluorescence polarization | inhibition, % (no concentration beside the values) | 0.6% of 320,000 active | AID 2629; in the data active means inhibition mostly above about 10%, no sharp cut-off; inactive means mostly below about 6.7%;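 further: stock transfer was 7.5 nL into about 10 µL; 0% = median of vehicle wells and 100% = median of positive control wells; one replicate is shown; the record names a cut of 25% in any replicate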
B2AR ag: activates human beta-2 adrenergic receptor causing internalization | P07550 | Am2.2-beta2AR cells, FAP receptor internalization, flow cytometry; reference of the scale not given here | response, % (test concentration not listed) | 0.43% of 340,000 active | AID 504454;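 active means response above a set limit, near 3 SD of response in nonfluorescent compounds, cut at about 42% in these data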;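 further: stock transfer was 100 nL into about 11 µL; a reference agonist was the positive control; negative values mostly stem from fluorescent compounds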
Target sequence (P07550 whole entry, looked up): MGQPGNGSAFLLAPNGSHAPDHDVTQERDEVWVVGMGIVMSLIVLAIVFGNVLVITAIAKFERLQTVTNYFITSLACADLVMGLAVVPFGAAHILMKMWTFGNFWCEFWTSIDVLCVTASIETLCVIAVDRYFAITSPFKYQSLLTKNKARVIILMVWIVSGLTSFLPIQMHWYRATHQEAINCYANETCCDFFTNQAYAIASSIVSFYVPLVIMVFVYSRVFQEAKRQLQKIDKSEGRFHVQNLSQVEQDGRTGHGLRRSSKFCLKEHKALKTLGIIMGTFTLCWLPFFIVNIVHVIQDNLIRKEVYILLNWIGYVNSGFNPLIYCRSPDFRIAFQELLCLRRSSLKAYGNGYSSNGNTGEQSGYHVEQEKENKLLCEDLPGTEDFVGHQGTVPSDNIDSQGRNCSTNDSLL
RanGTP-Imp inh: disruptors of Ran-importin-beta complex formation – biochemical, FRET, CFP-Ran, YFP-importin-beta, homogeneous, primary screen. cell-free CFP-Ran/YFP-importin-beta FRET ratio. inhibition, % (no concentration beside the values). 1.1% of 300,000 active. AID 2216;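 active means most replicates above 15%; inconclusive means exactly half above 15%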;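 further: 0% = DMSO wells and 100% = Ran loaded with GDP instead of GTP; wells of about 40 µL received 100 nL stock; the first replicate is given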
Bfl-1 A1 inh: inhibitors of the anti-apoptotic protein A1, read as caspase activation | MEF A1-2A-BIM cells, Caspase-Glo 3/7 luminescence, 3 h; percent of clofoctol response, vehicle zero | caspase activation, % (test concentration not listed) | 0.066% of 330,000 active | AID 2462;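 active means over half of replicate activation scores above 10%, or exactly half above 10 with the replicate mean above 10; inconclusive means replicate mean below 10 yet half the replicates above 10; inactive means over half of replicates below 10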;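 further: wells of about 30 µL received 50 nL stock; many hits fall short of the cut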
UCH37 inh: blocks the human deubiquitinase UCH37 | AID 588478 | inhibition, % (no concentration beside the values) | purified proteasome/UCH37, Ub-AMC cleavage fluorescence | 0.33% of 330,000 active;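 active means mean of two replicates above 20%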;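 further: 0% = compound-free wells with enzyme and 100% = wells lacking proteasome; stock transfer was 100 nL into about 20 µL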
Target sequence (Q9Y5K5 whole entry, looked up): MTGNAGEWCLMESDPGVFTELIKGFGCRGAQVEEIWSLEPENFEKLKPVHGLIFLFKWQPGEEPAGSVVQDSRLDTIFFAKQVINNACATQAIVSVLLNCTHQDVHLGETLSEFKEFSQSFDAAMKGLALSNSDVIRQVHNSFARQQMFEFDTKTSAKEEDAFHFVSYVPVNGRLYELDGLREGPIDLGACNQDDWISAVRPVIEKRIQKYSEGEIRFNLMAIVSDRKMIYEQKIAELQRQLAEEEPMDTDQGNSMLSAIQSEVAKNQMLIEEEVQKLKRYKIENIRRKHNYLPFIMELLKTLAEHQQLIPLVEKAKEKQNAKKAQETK
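assay system = human UCH37 enzyme supplied as purified proteasome complex | amount = proteasome at 0.15 nM in the dispensed enzyme solution | schedule = 30 min compound-proteasome preincubation then 25 min substrate reaction, room temperature | measured by = fluorescence, ex 355 nm, em 460 nm | benchmarks = no-proteasome wells (full inhibition) and compound-free wells (no inhibition)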
Beta cell apopt: beta cell apoptosis inhibition | protection from apoptosis, % (test concentration not listed) | 0.8% of 300,000 active | INS-1E cytokine-induced death, ATP luminescence, 48 h; percent of positive-control rescue, neutral wells zero;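 active means all replicates at 75% or more, or half of them and the mean; inconclusive means half reach 75% but not the mean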;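 further: 0% = cytokine-treated negative control wells and 100% = positive control rescue; higher means more ATP so stronger rescue from cytokine killing; wells of about 40 µL received 100 nL stock; the first replicate is given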
Calb FLC: affects C. albicans growth with fluconazole; C. albicans CaCi-2 (fluconazole-resistant clinical isolate) + fluconazole, Alamar Blue growth, 48 h; 0.57% of 300,000 active; AID 1979; growth inhibition, % (no concentration beside the values);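 active means most replicates above 75%; inconclusive means exactly half above 75%; inactive means most below 75%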;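 further: all wells also contain fluconazole at 8 µg/ml as a sub-toxic cotreatment; 0% = median of DMSO wells and 100% = median of geldanamycin control wells; wells of about 8 µL received 7.5 nL stock; the first replicate is given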
T cruzi repl: blocks replication of Trypanosoma cruzi; T. cruzi beta-gal in NIH3T3, luminescence, 90 h; inhibition, % (concentration not given with the values); 1.4% of 300,000 active;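 active means mean inhibition across valid replicates above about 55%, limit read from the data; inconclusive means mean below that limit but half or more replicates reach it; inactive means mean below it, under half of replicates reach it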;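 further: signal also drops with host cell toxicity which is not excluded here; 0% = plate median of DMSO wells and 100% = zero luminescence signal; higher percent means less beta-gal luminescence so fewer parasites; stock transfer was 50 nL into about 50 µL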
An asterisk follows results filed as active; i = inactive; ? = inconclusive; . = not tested or not shown.

Start of the data: the first four compounds, ahead of the listing:
SMILES	LANA-H2A inh	B2AR ag	RanGTP-Imp inh	Bfl-1 A1 inh	UCH37 inh	Beta cell apopt	Calb FLC	T cruzi repl
CCCCn1nnnc1SCC(=O)Nc1ccc(F)cc1	0.8	2	0.5	0.8	2.1	-2	-6	-5
O=C(CC(=O)NCCc1ccccc1)NCCc1ccccc1	0.3	1	-3.3	-1.8	2.0	.	-8	2
COc1ccccc1Nc1cc(C(=O)NC2CCCC2)c2ccccc2n1	5.3	-4	4.6	-0.6	-120	-10	-1	24
CC(C)CC(=O)NC(=S)N1CCCCCC1	-2.3	2	3.7	-0.4	-0.9	-10	.	-33

The whole of this part, from the first entry:
SMILES	LANA-H2A inh	B2AR ag	RanGTP-Imp inh	Bfl-1 A1 inh	UCH37 inh	Beta cell apopt	Calb FLC	T cruzi repl
CCCCn1nnnc1SCC(=O)Nc1ccc(F)cc1	0.8	2	0.5	0.8	2.1	-2	-6	-5
O=C(CC(=O)NCCc1ccccc1)NCCc1ccccc1	0.3	1	-3.3	-1.8	2.0	.	-8	2
COc1ccccc1Nc1cc(C(=O)NC2CCCC2)c2ccccc2n1	5.3	-4	4.6	-0.6	-120	-10	-1	24
CC(C)CC(=O)NC(=S)N1CCCCCC1	-2.3	2	3.7	-0.4	-0.9	-10	.	-33
COc1cccc(OC)c1C(=O)n1nc(C)cc1C	-0.2	4	5.2	-2.0	1.8	-4	?	-4
CCc1ccc(OC(C)C(=O)N(Cc2ccco2)C2CCS(=O)(=O)C2)cc1 (stereo unspecified)	0.9	3	-3.0	-0.2	6.2	-1	-5	3
N#Cc1ccc(C(=O)Nc2cccc3ncccc23)c(F)c1	16	-8	-0.5	-0.5	-0.1	-2	-11	0
CN(C)Cc1c(O)ccc2occ(C(=O)c3ccc(F)cc3)c12	4.1	1	0.5	0.4	.	-8	27	-12
c1ccc2c(Oc3ccc4c(c3)OCO4)nncc2c1	0.9	-3	1.8	-4.9	-1.4	4	1	-8
CCOC(=O)N1CCN(C(=O)C(C)SCc2ccccc2)CC1 (stereo unspecified)	3.3	-11	-0.8	-0.5	0.6	8	6	-3

3 entries out of the list above, sorted by the value under UCH37 inh, smallest number first:
SMILES | LANA-H2A inh | B2AR ag | RanGTP-Imp inh | UCH37 inh
COc1ccccc1Nc1cc(C(=O)NC2CCCC2)c2ccccc2n1 | 5.3 | -4 | 4.6 | -120
CCOC(=O)N1CCN(C(=O)C(C)SCc2ccccc2)CC1 (stereo unspecified) | 3.3 | -11 | -0.8 | 0.6
COc1cccc(OC)c1C(=O)n1nc(C)cc1C | -0.2 | 4 | 5.2 | 1.8

The list continues:
SMILES	LANA-H2A inh	B2AR ag	RanGTP-Imp inh	Bfl-1 A1 inh	UCH37 inh	Beta cell apopt	Calb FLC	T cruzi repl
CCCc1cc(=O)n2[nH]c(NCc3c(F)cccc3Cl)nc2n1	-3.3	12	-1.1	1.3	3.3	-9	4	-15
COc1ccc(NC(=O)Nc2cccc(C)n2)c(OC)c1	0.2	7	2.9	0.6	1.7	-8	-3	-3
COCCn1c(-c2cc(OC)c(OC)c(OC)c2)nc2oc3cc(OC)ccc3c(=O)c2c1=O	-2.9	.	-1.7	-0.1	-0.7	6	-1	2
COc1cccc(CNC(=O)CCc2nnc3ccc(NCCCN4CCCC4=O)nn23)c1	2.2	-10	?	-0.4	-1.4	2	1	-4
O=S(=O)(Nc1ccncc1)c1ccc(Cl)c(Cl)c1	3.0	-4	-3.2	1.4	1.8	5	14	5
O=C(CC1(O)C(=O)N(Cc2ccccc2)c2ccccc21)c1ccc2c(c1)OCO2 (stereo unspecified)	2.2	-3	-2.1	-0.8	2.1	-10	-22	-18
CCOC(=O)c1ccc(NS(=O)(=O)c2ccc3c(c2)CCCN3C(C)=O)cc1	-0.1	-4	1.4	3.1	3.2	-1	.	-4
Cn1nc(CC(=O)NCc2cccc3ccccc23)c2ccccc2c1=O	-8.5	-2	3.2	-1.0	-0.2	45	-10	-35
COc1ccccc1N1CCN(C(=O)c2ccoc2C)CC1	2.3	-3	-1.7	-0.6	2.4	-4	0	-2
O=c1cc(N2CCN(c3ccccc3)CC2)[nH]c(=O)n1-c1ccccc1Cl	2.6	-4	7.3	0.3	1.3	2	0	10
O=C(COC(=O)C12CC3CC(CC(O)(C3)C1)C2)Nc1ccc(Br)cc1F	4.0	1	.	0.3	3.2	-3	.	.
Cc1cc2nc(-c3ccc[nH]c3=O)n(Cc3cccc(F)c3)c2cc1C	-2.3	3	-1.9	0.6	i	-2	-12	6
CCN(CC)CCn1c(=S)[nH]c2ccccc2c1=O	-2.0	-4	-0.1	0.9	2.3	1	?	-11
CCN(CC)S(=O)(=O)c1ccc(NCCCn2ccnc2)c([N+](=O)[O-])c1	3.4	1	0.2	0.0	4.4	-1	5	21
C1=C(c2cccc3ccccc23)N2CCN=C2S1	2.4	-5	1.7	-0.6	2.7	3	-7	15
Cc1ccn2c(CNCc3cnn(C)c3)c(C(=O)N3CCCCCC3)nc2c1	2.5	-6	1.3	-0.2	1.8	-11	1	-2
COc1ccc2c(c1)c1nc3n(c(=O)c1n2CC(=O)Nc1ccccc1)CCCS3	2.5	-12	1.9	0.9	-49	0	-4	4
Cc1cccc(C(=O)NC(=S)N2CCN(C(=S)NC(=O)c3cccc(C)c3)CC2)c1	-3.6	-3	-3.5	0.4	.	4	9	5
O=C(N/N=C/c1c(O)ccc2ccccc12)c1cccnc1	-0.1	15	10	-0.2	.	96*	100*	66*
COc1ccccc1NC(=S)NCC1CCCCC1	-5.2	-9	-1.2	0.1	1.3	-14	-31	18
O=C(NC1CCCCCC1)c1cc(-c2ccccn2)nc2ccccc12	-2.5	-10	0.7	-0.2	0.3	0	?	5
Cc1cc(C)n(CCc2nc(-c3ccc(-c4ccccc4)cc3)cs2)n1	-2.3	1	-2.4	-4.0	1.4	4	27	-30
CC(=O)Nc1ccn(-c2ccccc2)n1	3.8	-4	0.6	-0.2	2.5	0	14	-9
COC(=O)C1=C(C)NC(=S)NC1c1ccc(OCC(=O)N2CCCCC2)c(OC)c1 (stereo unspecified)	-4.0	-3	-2.3	-0.2	1.8	-1	-1	0
CN(C)S(=O)(=O)c1ccc(C(=O)NCc2ccc3[nH]c4c(c3c2)CCCC4)cc1	-3.8	7	5.5	0.1	2.5	2	-4	-1
O=C(O)c1cccc(Nc2ccc([N+](=O)[O-])c3nonc23)c1	-3.1	-5	-12	0.0	24*	2	-11	7
COc1ccc(NC(=O)Nc2nnc(-c3ccncc3)s2)cc1	1.8	32	4.0	0.2	3.4	-8	-10	11
CCOc1ccc(NC(=S)N(Cc2ccc(N(C)C)cc2)Cc2ccco2)cc1	3.3	2	-5.2	0.9	4.8	1	-27	42
O=C(NNC1CC(=O)N(c2ccc(Br)cc2)C1=O)c1cccs1 (stereo unspecified)	-6.7	7	1.5	0.8	-0.4	-10	-4	-15
Fc1ccc(NCc2cccnc2)cc1	1.3	2	-1.1	0.1	-1.2	-5	-12	0
O=C1CC(=C(c2ccccc2)c2ccccc2)C(=O)N1CCCCN1CCN(c2cccc(Cl)c2)CC1	-1.2	3	?	0.2	0.6	-4	?	32
C/C(=N\NC(=O)C1CC1)c1ccc(Cl)cc1	6.2	-18	-2.8	0.3	.	1	-17	8
CCOc1ccc(OCC)c(NS(=O)(=O)c2ccc3c(c2)n(C)c(=O)c(=O)n3C)c1	-0.8	-5	-2.6	0.3	3.3	-2	6	4
CCOc1c2c(nc3ccc(Cl)cc13)CCC2	-1.9	1	6.3	0.4	3.1	-16	-29	2
Cc1ccc2c(c1)N(CC(=O)NC1CCCc3ccccc31)C(=O)CO2 (stereo unspecified)	1.3	2	1.7	-0.3	2.1	7	-11	-6
COc1ccc(C2CC(c3cccs3)=NN2S(C)(=O)=O)cc1OC (stereo unspecified)	-0.4	11	.	0.2	0.1	5	-17	.
CCCN(CCC)CC(=O)Nc1cccc2c1OCO2	-2.7	2	0.0	-0.9	-0.8	-1	-9	7
CCN(CC)C(=O)CN(c1ccc2c(c1)OCO2)S(C)(=O)=O	1.8	5	-4.6	-0.2	3.2	-8	2	-18
Cc1c(C(=O)OCC(=O)Nc2ccc3c(c2)OCO3)cccc1[N+](=O)[O-]	-6.1	-6	0.5	0.2	4.6	-12	-1	13
COC(=O)C1=C(C(C)=O)C(c2ccc(C(=O)OC)cc2)n2nnnc2N1 (stereo unspecified)	-3.3	8	-0.2	0.0	8.5	-6	-7	-2
Cc1ccc(S(=O)(=O)N2CCC(C(=O)O)CC2)cc1	3.0	2	2.9	0.3	1.2	-5	-6	-9
COc1ccc2c3n([n+]([O-])c2c1)CCN=C3c1ccc(C)cc1	-2.9	-2	.	0.0	3.2	1	.	.
C=CCNC(=O)c1ccc(-c2cccc([N+](=O)[O-])c2)o1	-19	-13	5.2	-0.5	2.9	-4	15	-10
CNC(=S)N(CCc1ccc(OC)c(OC)c1)Cc1cc2c(C)cc(C)cc2[nH]c1=O	4.7	0	-3.7	0.5	4.2	.	13	1
COc1cnc(SCc2ccc(Cl)cc2Cl)nc1Cl	-1.9	8	5.5	-2.6	0.6	-11	-12	4
CCN(CC)c1nc(N)c([N+](=O)[O-])c(NCCO)n1	0.2	2	-4.0	-0.7	16	-1	-6	-18
Cc1csc2nc(O)c(C(=O)NC3CCCCC3)c(=O)n12	3.6	-3	0.9	-0.2	-1.0	.	0	-4
CCOC(=O)CNC(=O)c1c(C)nn(C)c1Cl	3.7	1	3.1	0.8	.	1	-5	-1
Cc1c(NC(=O)CSc2nnnn2-c2ccc(F)cc2)c(=O)n(-c2ccccc2)n1C	-0.3	-6	1.9	0.5	4.6	0	-7	10
O=C(Nc1ccc(Cl)cn1)c1cc(S(=O)(=O)N2CCCCC2)ccc1Cl	-1.4	-5	-0.9	1.2	2.3	4	-6	1
Carrying on.
SMILES	LANA-H2A inh	B2AR ag	RanGTP-Imp inh	Bfl-1 A1 inh	UCH37 inh	Beta cell apopt	Calb FLC	T cruzi repl
CCOc1ccc(CCNC(=O)COC(=O)/C=C/c2ccccc2OC)cc1OCC	0.2	4	-6.1	-0.1	-4.7	-1	1	1
C/C(=N\Nc1ccc([N+](=O)[O-])cc1)c1ccc(C#N)cc1	0.9	17	9.5	0.6	.	3	-8	-1
COc1ccc(NC(=O)CC(Cc2ccc(Cl)cc2)C(=O)O)cc1 (stereo unspecified)	1.6	-3	1.7	-0.5	4.6	-12	-3	0
O=C(NNC1CC(=O)N(c2ccc(Br)cc2)C1=O)c1ccco1 (stereo unspecified)	-1.4	-10	3.7	0.4	-2.3	-1	10	-13
O=C(Nc1cccc(S(=O)(=O)N2CCCC2)c1)c1ccccc1OC(F)F	-1.0	-5	4.4	0.5	2.1	-2	-5	6
ClCc1nnc(-c2ccccc2)o1	10	-9	2.4	0.6	1.2	-15	-1	-4
Cc1ccc(C)c(S(=O)(=O)NC(C)CCc2ccccc2)c1 (stereo unspecified)	4.9	15	2.5	-0.1	3.2	-6	16	1
